Sa growth inh: blocks Staphylococcus aureus growth. S. aureus RN4220 growth, OD600, 20 h, 42 °C; stronger effect = lower value. relative growth, % (concentration not given with the values). 170,000 compounds, 0.53% hits. AID 720641;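 active = growth at 42 °C up to 50% and 20 or more points under that at 30 °C, or under 10% at both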;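 also: 300 nL library stock went into each well; scaled to the means of positive and negative controls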
HCMV UL50-53 inh: disrupts HCMV UL50-UL53 complex binding; 190,000 compounds, 0.15% hits; inhibition, % (concentration not given with the values); AID 1918969; HTRF UL50-UL53 interaction, normalized percent inhibition;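 active = both replicates at 50% or more, plus weaker picks with an unusually low signal ratio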;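 also: stock transfer was 100 nL into about 20 µL; 0% = negative control wells and 100% = wells with untagged competitor protein; inactives centre near -12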
GIV-Gai inh: GIV-Galpha-i interaction inhibition. percent of control (FP), % (no concentration beside the values). 210,000 compounds, 0.42% hits. Galpha-i3/FITC-GIV peptide fluorescence polarization, 90 min; stronger effect = lower value; scaled: aluminum fluoride 0%, vehicle 100%. P08753;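 active = replicate mean at 85% of control or lower, very high polarization wells dropped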;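 also: wells of about 15 µL received 100 nL stock; the first replicate is given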
Target sequence (P08753 whole entry, looked up): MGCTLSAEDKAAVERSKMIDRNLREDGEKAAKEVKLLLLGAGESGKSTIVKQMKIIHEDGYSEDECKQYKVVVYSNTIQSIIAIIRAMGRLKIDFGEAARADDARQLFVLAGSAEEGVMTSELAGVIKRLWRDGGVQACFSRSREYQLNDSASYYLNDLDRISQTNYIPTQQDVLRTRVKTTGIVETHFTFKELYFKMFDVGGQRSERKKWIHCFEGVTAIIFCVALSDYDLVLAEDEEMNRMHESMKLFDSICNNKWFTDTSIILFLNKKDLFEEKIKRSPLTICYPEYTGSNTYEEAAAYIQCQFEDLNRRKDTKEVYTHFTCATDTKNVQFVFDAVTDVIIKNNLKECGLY
Sa growth inh second temp: also measured in Sa growth inh; calls as there; relative growth, %; measured here: growth at 30 °C;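 optical density after 20 h as mean of two plates; 100% = untreated growth and lower means inhibition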
* = called active by the depositor; & = joins results of further samples.

For O=C(COc1cc(O)c2c(=O)c3ccccc3oc2c1)OCc1ccccc1 the results were HCMV UL50-53 inh -2 and GIV-Gai inh 104.
CCC(C)N1CC(=O)N(c2cc(C)cc(C)c2)[C@@H]2CS(=O)(=O)C[C@@H]21 (stereo partly drawn) was read as HCMV UL50-53 inh -29 and GIV-Gai inh 106.
`COc1cc(CNc2ccc(F)cc2C)cc(OC)c1` gave Sa growth inh 98, HCMV UL50-53 inh -5, GIV-Gai inh 100 and Sa growth inh second temp 76.
`CC1(C)CC(=O)C/C(=N/Nc2nc3ccccc3s2)C1` gave Sa growth inh 92, HCMV UL50-53 inh -26 and Sa growth inh second temp 63.
Cc1ccc(-c2cc(-c3ccccc3)nc(N3CCCC3)n2)cc1 was read as Sa growth inh 92, HCMV UL50-53 inh 13, GIV-Gai inh 102 and Sa growth inh second temp 91.
Cc1cccc(NC(=O)CC(NCc2ccco2)C(=O)O)c1C (stereo not drawn) was read as Sa growth inh 94, HCMV UL50-53 inh -29, GIV-Gai inh 100 and Sa growth inh second temp 87.
For O=S(=O)(c1ccccc1)N1N=C(c2cccs2)CC1c1ccc(F)cc1 (stereo not drawn) the results were HCMV UL50-53 inh -23 and GIV-Gai inh 103.
Screening N#CCSc1[nH]c(=O)c(-c2nc(-c3ccccc3)cs2)cc1C#N returned Sa growth inh 86, HCMV UL50-53 inh -4 and Sa growth inh second temp 66.
`CC(C)CC(=O)Nc1nnc(S(=O)(=O)N2c3ccccc3CC2C)s1` (stereo not drawn) gave Sa growth inh 109, HCMV UL50-53 inh -17, GIV-Gai inh 102 and Sa growth inh second temp 89.
O=C(NCC1CCCO1)c1ccc(N2CCNCC2)c(NS(=O)(=O)c2ccc(F)c(Cl)c2)c1 (stereo not drawn) was read as HCMV UL50-53 inh -4 and GIV-Gai inh 96.
`CCOC(=O)/C(=C\Nc1ccc(F)cc1)S(=O)(=O)c1ccc(Cl)cc1` gave Sa growth inh 86, HCMV UL50-53 inh -8, GIV-Gai inh 104 and Sa growth inh second temp 80.
`CC(=O)Nc1ccc(S(=O)(=O)NC2=NCN(CCO)CN2)cc1` gave Sa growth inh 106, HCMV UL50-53 inh 9, GIV-Gai inh 105 and Sa growth inh second temp 101.
`COc1cc(/C=N\n2c(C)n[nH]c2=S)cc(OC)c1OC` gave Sa growth inh 97, HCMV UL50-53 inh -30, GIV-Gai inh 107 and Sa growth inh second temp 85.
Screening O=C(CCN1C(=O)c2ccccc2C1=O)Oc1ccc2c3c(c(=O)oc2c1)CCC3 returned Sa growth inh 95, GIV-Gai inh 101 and Sa growth inh second temp 82.
For CCOC(=O)c1c(C)csc1NC(=O)CC(=O)C(F)(F)F the results were Sa growth inh 2.8*, HCMV UL50-53 inh -34, GIV-Gai inh 99 and Sa growth inh second temp 4.3*.
`O=C(Oc1ccccc1)c1cc(-c2ccccc2)c(C(F)(F)F)s1` gave Sa growth inh 99, HCMV UL50-53 inh -4, GIV-Gai inh 102 and Sa growth inh second temp 101.
`O=C(Cc1ccccc1)c1ccccc1C(=O)NCc1cccs1` gave Sa growth inh 122, HCMV UL50-53 inh 14 and Sa growth inh second temp 74.
COc1ccc(C=C2C(=O)OC(C)(C)OC2=O)cc1OC was read as Sa growth inh 89, HCMV UL50-53 inh 9, GIV-Gai inh 98 and Sa growth inh second temp 85.
For COc1nc(NCCO)nc(Nc2ccc(I)cc2C)n1 the results were Sa growth inh 105, GIV-Gai inh 101 and Sa growth inh second temp 83.
Screening O=C(NC1CC1)C1CCN(C(=O)c2sccc2-n2cccc2)CC1 returned Sa growth inh 99, HCMV UL50-53 inh 3, GIV-Gai inh 109 and Sa growth inh second temp 95.
For CCOC(=O)CC1C(=O)NCCN1C1CCCCC1 (stereo not drawn) the results were Sa growth inh 90, HCMV UL50-53 inh -17&-1, GIV-Gai inh 101&105 and Sa growth inh second temp 90.
`Cn1c(=O)oc2cc(S(=O)(=O)NCCn3c(CCc4ccccc4)nc4ccccc43)ccc21` gave HCMV UL50-53 inh -16 and GIV-Gai inh 101.
`Cc1ccc(CN2C(=O)c3cc4ccsc4n3CC2(C)C(=O)NC2CCCC2)cc1` (stereo not drawn) gave HCMV UL50-53 inh -21 and GIV-Gai inh 104.
Cc1nc(N2CCN(c3ccccn3)CC2)c2c(C)c(C(=O)O)sc2n1 was read as HCMV UL50-53 inh -19 and GIV-Gai inh 106.
For NCC(O)COCc1ccco1 (stereo not drawn) the results were Sa growth inh 89, HCMV UL50-53 inh -12 and Sa growth inh second temp 98.
Screening O=c1c2ccccc2ncn1Cc1noc(/C=C/c2ccccc2)n1 returned HCMV UL50-53 inh -46 and GIV-Gai inh 104.
Screening CCOC(=O)c1c(-c2ccccc2)oc2cc(Br)c(OCC(=O)C(C)(C)C)cc12 returned HCMV UL50-53 inh 5 and GIV-Gai inh 105.
For Cc1ccc(NC(C#N)c2c(C)[nH]c(=O)[nH]c2=O)cc1 (stereo not drawn) the results were Sa growth inh 116, HCMV UL50-53 inh -24, GIV-Gai inh 105 and Sa growth inh second temp 69.
CCn1c(=O)n(-c2cccc(Cl)c2)c(=O)c2c1c1cc(C)ccc1n2C was read as HCMV UL50-53 inh -7 and GIV-Gai inh 101.
For Cc1ccc(C)c(C(=O)CSc2nnc(C)s2)c1 the results were Sa growth inh 114, HCMV UL50-53 inh -3, GIV-Gai inh 98 and Sa growth inh second temp 83.
Screening CCOc1ccc(NC(=O)Cn2c(=O)n(C3CCCC3)c(=O)c3cc(OC)c(OC)cc32)cc1 returned Sa growth inh 103, HCMV UL50-53 inh -14, GIV-Gai inh 105 and Sa growth inh second temp 74.
`OC(C#Cc1ccccc1)C#Cc1ccccc1` gave Sa growth inh 43, HCMV UL50-53 inh -6, GIV-Gai inh 104 and Sa growth inh second temp 28.
`CC(=O)c1cc2c(cc1N/C(=N/S(=O)(=O)c1ccc(Cl)cc1)c1ccc(F)cc1)OCO2` gave Sa growth inh 116, GIV-Gai inh 99 and Sa growth inh second temp 99.
CCCCc1ccccc1NC(=O)NCCC was read as Sa growth inh 99, HCMV UL50-53 inh -7, GIV-Gai inh 101 and Sa growth inh second temp 101.
For CCOC(=O)c1c(CN(C)C)n(-c2ccccc2)c2cc(Br)c(OC)cc12 the results were Sa growth inh 104, HCMV UL50-53 inh -4 and Sa growth inh second temp 87.
COCCn1c(-c2ccc3c(c2)NC(=O)CO3)csc1=Nc1ccccc1 was read as Sa growth inh 96, HCMV UL50-53 inh 3 and Sa growth inh second temp 93.
COc1ccc(C)cc1-n1nnc(-c2nc(-c3ccccc3Cl)no2)c1N was read as Sa growth inh 111, GIV-Gai inh 99 and Sa growth inh second temp 73.
CN(C)N=Nc1ccccc1C(=O)NCc1ccc(Cl)cc1 was read as Sa growth inh 100, HCMV UL50-53 inh 0 and Sa growth inh second temp 95.
Cn1cc(/C=N/NC(=O)CC#N)c2ccccc21 was read as Sa growth inh 69, HCMV UL50-53 inh -58, GIV-Gai inh 96 and Sa growth inh second temp 53.
COc1ccc(C(=O)OC2=C(C(=O)c3ccccc3)N(C)S(=O)(=O)c3ccccc32)cc1OC was read as Sa growth inh 111, HCMV UL50-53 inh 11, GIV-Gai inh 109 and Sa growth inh second temp 104.
`CNC(=O)NC(=O)CSc1nc2ccccc2s1` gave Sa growth inh 85, HCMV UL50-53 inh 3 and Sa growth inh second temp 93.
Cn1c(Cc2ccccc2)n[nH]c1=S was read as Sa growth inh 107&74, HCMV UL50-53 inh -3&-24, GIV-Gai inh 100 and Sa growth inh second temp 96&87.
Screening O=C1CC(N2CCSCC2)C(=O)N1CCc1ccccc1 (stereo not drawn) returned Sa growth inh 106, HCMV UL50-53 inh -10, GIV-Gai inh 104 and Sa growth inh second temp 97.
Screening Brc1ccccc1-c1nn2c(-c3ccccn3)nnc2s1 returned HCMV UL50-53 inh 4 and GIV-Gai inh 112.
`CC(NC(=O)CSc1nnc(-c2cccnc2)o1)c1nc2ccccc2n1C` (stereo not drawn) gave HCMV UL50-53 inh -25 and GIV-Gai inh 101.
Screening CC(NC(=O)CSc1nnc(-c2ccco2)n1-c1ccccc1)c1ccccc1 (stereo not drawn) returned Sa growth inh 99, HCMV UL50-53 inh -15, GIV-Gai inh 94 and Sa growth inh second temp 74.
Screening C1CCN(CC2COC3(CCCC3)O2)CC1 (stereo not drawn) returned Sa growth inh 98, HCMV UL50-53 inh 1, GIV-Gai inh 112 and Sa growth inh second temp 97.
Screening COc1ccc(NC(=O)c2nc(SCc3ccccc3F)ncc2Cl)cc1 returned Sa growth inh 95, HCMV UL50-53 inh -18, GIV-Gai inh 101 and Sa growth inh second temp 90.
`CC(C)C(=O)Nc1ccc(NC(=O)C(C)(C)C)cc1` gave Sa growth inh 111, HCMV UL50-53 inh -7, GIV-Gai inh 108 and Sa growth inh second temp 89.
COc1cc2[nH]c(=O)n(CCCCCC(=O)NCCc3ccccc3)c(=O)c2cc1OC was read as Sa growth inh 104, HCMV UL50-53 inh -15, GIV-Gai inh 102 and Sa growth inh second temp 97.
For CCCN1C(=O)c2ccccc2NC1c1ccc(OC)c(COc2cccc(OC)c2)c1 (stereo not drawn) the results were HCMV UL50-53 inh -13 and GIV-Gai inh 104.
CCN(CC(=O)Nc1ccccc1OC)Cc1cc(=O)n2c(-c3ccccc3)csc2n1 was read as Sa growth inh 82, HCMV UL50-53 inh -23 and Sa growth inh second temp 83.
`COc1ccccc1NC(=O)CSc1nc2c(oc3ccccc32)c(=O)n1-c1ccc(C)cc1` gave Sa growth inh 86, HCMV UL50-53 inh -15, GIV-Gai inh 100 and Sa growth inh second temp 86.
`Cc1cc(C(=O)COc2ccc3oc4ccccc4c3c2)c(C)n1CC1CCCO1` (stereo not drawn) gave Sa growth inh 96, HCMV UL50-53 inh -10 and Sa growth inh second temp 104.
For CCN1C(=O)C(C)S/C1=C(/C#N)C(=O)NCc1ccco1 (stereo not drawn) the results were Sa growth inh 94, HCMV UL50-53 inh -6 and Sa growth inh second temp 102.
For CCOC(=O)c1sc(NC(=O)CSc2nnc3ccccn23)c(C(=O)OCC)c1C the results were HCMV UL50-53 inh -16 and GIV-Gai inh 98.
Screening O=C(C1CC1)N1CCN(c2nc3c(Cl)cccc3s2)CC1 returned Sa growth inh 96, GIV-Gai inh 98 and Sa growth inh second temp 95.
`O=C(O)Cc1sc(-c2ccccn2)nc1-c1cccs1` gave Sa growth inh 112, HCMV UL50-53 inh -62 and Sa growth inh second temp 83.
COCCCn1c(SCc2cc(C(=O)OC)c(C)o2)nnc1-c1ccccc1Cl was read as Sa growth inh 77, HCMV UL50-53 inh -17 and Sa growth inh second temp 79.
For CCOc1ccc(C(=O)NCC(c2ccc3c(c2)OCO3)N2CCN(C)CC2)cc1 (stereo not drawn) the results were Sa growth inh 90, GIV-Gai inh 100 and Sa growth inh second temp 87.
For CN=c1scc(-c2ccc(NC(C)=O)cc2)n1C the results were Sa growth inh 77, HCMV UL50-53 inh -27 and Sa growth inh second temp 88.
Screening O=C(CCCc1nc(-c2ccccc2Cl)no1)Nc1nncs1 returned HCMV UL50-53 inh -19 and GIV-Gai inh 105.
`CCOc1cccc(-c2cc(C(=O)Nc3ccc4c(c3)OCCO4)c3ccccc3n2)c1` gave HCMV UL50-53 inh -4 and GIV-Gai inh 106.
O=C(NCCc1c[nH]c2ccccc12)c1ccc2c(c1)NC(=O)C1CCCN21 (stereo not drawn) was read as Sa growth inh 99, HCMV UL50-53 inh -6, GIV-Gai inh 114 and Sa growth inh second temp 85.
For COc1ccc(OC)c(C(c2sc3nc(C)nn3c2O)N(C)Cc2ccccc2)c1 (stereo not drawn) the results were Sa growth inh 102, HCMV UL50-53 inh -15, GIV-Gai inh 96 and Sa growth inh second temp 83.
`CC(C)C(NS(=O)(=O)c1ccc(Br)s1)C(C)C` gave Sa growth inh 98, HCMV UL50-53 inh 4, GIV-Gai inh 105 and Sa growth inh second temp 101.
`COc1cc(NC(=O)CC(C)S(=O)(=O)c2ccc3c(c2)CCN3C(C)=O)cc(OC)c1OC` (stereo not drawn) gave Sa growth inh 113, GIV-Gai inh 101 and Sa growth inh second temp 90.
`O=C(CCCN=C1NS(=O)(=O)c2ccccc21)Nc1ccccc1N1CCOCC1` gave Sa growth inh 101, HCMV UL50-53 inh -5 and Sa growth inh second temp 91.

Looked up one by one from the list above (3):
O=C(NCCc1c[nH]c2ccccc12)c1ccc2c(c1)NC(=O)C1CCCN21 (stereo not drawn) was read as Sa growth inh 99, HCMV UL50-53 inh -6, GIV-Gai inh 114 and Sa growth inh second temp 85.
Screening O=C(CCCc1nc(-c2ccccc2Cl)no1)Nc1nncs1 returned HCMV UL50-53 inh -19 and GIV-Gai inh 105.
`COc1cc(NC(=O)CC(C)S(=O)(=O)c2ccc3c(c2)CCN3C(C)=O)cc(OC)c1OC` (stereo not drawn) gave Sa growth inh 113, GIV-Gai inh 101 and Sa growth inh second temp 90.

Of the compounds above, these have a CF3 group.
For CCOC(=O)c1c(C)csc1NC(=O)CC(=O)C(F)(F)F the results were Sa growth inh 2.8*, HCMV UL50-53 inh -34, GIV-Gai inh 99 and Sa growth inh second temp 4.3*.
`O=C(Oc1ccccc1)c1cc(-c2ccccc2)c(C(F)(F)F)s1` gave Sa growth inh 99, HCMV UL50-53 inh -4, GIV-Gai inh 102 and Sa growth inh second temp 101.
